CDC25B-CDK2 inh: human CDC25B-CDK2/CyclinA binding inhibition; HTRF CDC25B-CDK2/CyclinA binding, anti-His/anti-Flag; active compounds read high; z-score (concentration not given with the values); 94,000 tested, 0.72% active; AID 1259370;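 also: score is relative to mean and SD of negative controls; strong numbers were not always called active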
TAR Tat displ: HIV-1 TAR-Tat binding disruption | HIV-1 TAR RNA, Tat peptide displacement FRET; active compounds read high | z-score (test concentration not listed) | 100,000 tested, 0.6% active;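 also: score is relative to mean and SD of negative controls; some compounds called inactive have numbers as strong as hits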
Starred values were filed as active, the others as inactive; . = not tested or not shown.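 The calls were made as follows: active = z-score from 3 up in half or more of its runs; inactive = the rest.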

SMILES | CDC25B-CDK2 inh | TAR Tat displ
CC(C(=O)NC1CCc2ccccc21)n1nc2ccccc2n1 (configuration not stated) | -0.84 | -0.42
O=C1CCCc2oc3c(cc(NS(=O)(=O)c4ccc(Cl)c([N+](=O)[O-])c4)c4ccccc43)c21 | -0.49 | .
Fc1ccc(C2CC(c3ccc(Br)cc3)n3nnnc3N2)cc1 (configuration not stated) | . | 1.31
O=c1onc(-c2cccs2)n1Cc1ccncc1 | -1.93 | .
Cc1cc(I)c[nH]c1=O | -1.72 | .
Nc1nnc(Sc2cc3c(cc2[N+](=O)[O-])C(=O)NC3=O)s1 | -0.83 | .
O=C1CC(c2ccccc2)CC2=C1C(c1cccs1)N(C(=O)C1CC1)c1ccccc1N2 (configuration not stated) | 0.32 | .
Cc1ccc(-c2noc(-c3ccccc3O)n2)cc1 | -2.41 | .
COc1cc(OC)c(NCc2ccc(OC)c(Cn3ccnc3)c2)cc1Cl | . | 1.34
Cn1ncc2c(Nc3cccc(Cl)c3)nc(NCc3ccccc3)nc21 | . | 1.03
CN1CSC2=C(C#N)C(c3ccccc3)CC(=O)N2C1 (configuration not stated) | 4.14 | 0.4
COc1ccc(Nc2ncnc3scc(-c4ccc(F)cc4)c23)cc1 | . | 2.07
CCCCC1(C)OC(=O)C(=Cc2cc3c(cc2[N+](=O)[O-])OCO3)C(=O)O1 (configuration not stated) | 20* | .
O=C1C=CC2(C=C1)CC1(CCCCC1)N=C2SCc1ccccc1 | 1.06 | 1.46
O=C(c1cc(-c2ccc(Br)cc2)on1)N1CCOCC1 | -1.4 | -0.68
N#Cc1cccc(C#N)c1Oc1ccc(S(=O)(=O)Nc2ccccc2)cc1 | 1.75 | .
O=C(CN1C2=NCCCN2c2ccccc21)c1ccc(Br)cc1 | 1.04 | -0.57
O=C(O)c1ccc2nc3c(nc2c1)-c1cccc2cccc-3c12 | -2.6 | 5.9*
CCN(CC)CCOCOCC#CCOC | -1.1 | .
Cc1cccc(OCCCSc2nc(-c3cccs3)nc3cc(=O)[nH]n23)c1C | . | 0.29
CC(C)OC(=O)C1C(=O)CC(C)(O)C(C(=O)OC(C)C)C1c1ccc(O)cc1 (configuration not stated) | 0.06 | -0.91
O=C(Cn1c(=O)c2cccn2c2ccc(F)cc21)N1CCCC1 | . | -0.6
Cc1cc(C)c(NC(=O)CCN2CCCCC2)c(C)c1 | 0.59 | .
CCN(CC)CCNc1nc(SC)nc2sc3c(c12)CC(C)(CC)OC3 (configuration not stated) | -0.75 | 0.07
Fc1ccc(CN2CCCN(C(=S)NC3CCCCC3)CC2)cc1 | -1.87 | .
Cc1ccc(-n2nnnc2CNC(=O)Nc2ccc(C(C)(C)C)cc2)cc1 | . | 1.66
Cc1ccc(-c2nc3cc(Cl)ccc3o2)cc1NC(=O)C(C)C | -0.08 | .
CC1CCN(c2cc3c(cc2F)c(=O)c(S(=O)(=O)c2ccc(Cl)cc2)cn3C)CC1 | . | 1.16
O=C(CSc1nc(-c2ccco2)cc(C(F)(F)F)n1)NCc1ccco1 | 0.28 | -0.63
O=C(Nc1ccc(Cl)cc1)c1cnn(-c2ccccc2)c1-n1cccc1 | -1.66 | 2.11
CCCCNC(=O)c1cnc2n(c1=O)CCS2 | -0.72 | .
Cc1cc(NC(=O)NC2CC(=O)N(C3CCCC3)C2)ccc1Br (configuration not stated) | -1.26 | 0.95
N#CCC(=O)NC(=O)NC12CC3CC(CC(C3)C1)C2 | -2.05 | .
COc1cc(C=Nc2ccc(F)cc2F)ccc1OC(=O)/C=C/c1cccs1 | -1.18 | .
CCOC(=O)c1cc(-c2ccc(S(=O)(=O)Nc3ccc(F)cc3F)s2)on1 | . | 0.79
COc1ccc2c(c1)OCc1c-2oc2cc(OC)ccc12 | . | 2.21
CCCN1C(C(=O)c2ccccc2)=C(OC(=O)CC)c2ccccc2S1(=O)=O | -0.42 | 0.16
O=C(COCc1cc(-c2cccs2)on1)Nc1c(F)cc(F)cc1Br | . | 1.55
CCOc1cc(-c2cc(N)n(S(=O)(=O)Cc3ccccc3)n2)cc(OCC)c1OCC | -2.34 | .
CCCCSc1nc2c(c(=O)[nH]1)C(c1sccc1C)C(C(=O)OCC)=C(C)N2 (configuration not stated) | -0.39 | -1.51
Cc1noc(/C=C/c2cccs2)c1S(=O)(=O)N1CCC(C(=O)NC(C)(C)C)CC1 | . | 0.98
CC(=O)Nc1ccc(S(=O)(=O)N2CCCC2c2ccco2)cc1 (configuration not stated) | -1.92 | 0.88
O=C(O)CCSc1nnc(Cc2ccccc2)o1 | 0.24 | 0.3
Cc1cc(NC(=O)NC(=O)c2ccccc2F)no1 | -1.16 | .
O=C(NCC1CCCO1)C1(c2cccs2)CCOCC1 (configuration not stated) | . | 1.55
CC(=O)N1N=C(c2cn(C(C)=O)c3ccccc23)OC1c1ccccn1 (configuration not stated) | . | -1.55
O=C(CSc1ncnc2c1oc1ccccc12)N1CCOCC1 | -1.45 | .
O=C(NCCCN1CCCC1=O)c1[nH]nc2c1CCc1ccccc1-2 | . | -0.36
CN(C)CCCNC(=O)C1(O)c2cc(Br)ccc2NC(=O)N1c1ccc(Cl)cc1 (configuration not stated) | -0.62 | .
O=C(NCCN1CCN(c2nccc(C(F)(F)F)n2)CC1)NC1CCCCC1 | -1.05 | .
Cc1ccc(CN(C(=O)COc2cc(C)c(Cl)c(C)c2)C2CCS(=O)(=O)C2)o1 (configuration not stated) | -0.01 | 2.69
COc1cc(NC(=O)C2=C(C)OCCS2)c(Cl)cc1C(=O)NC1CCCCC1 | . | -0.86
O=C(NC1CCCCC1)c1cccn2c(=O)c3cc4c(cc3nc12)OCO4 | 0.86 | 1.74
CCC(=O)N1c2ccc(S(=O)(=O)N3CCCc4ccccc43)cc2CC1C (configuration not stated) | . | 1.16
O=C(Nc1noc2ccccc12)c1ccccc1Br | -2.09 | 0.15
CCc1ccc(CN2N=NC3C(=O)N(c4ccc(F)c(F)c4)C(=O)C32)cc1 (configuration not stated) | 1.03 | 1.3
O=C(C(c1ccccc1)c1ccccc1)N(Cc1ccco1)Cc1cccs1 | 0.22 | -1.06
Cc1ncc(CO)c2cc(C(=O)Nc3ccc(Br)cc3)c(=O)oc12 | . | 0.8
OC(C#CCN1CCOCC1)(c1ccccc1)c1cccc(F)c1 (configuration not stated) | 0.17 | -0.44
O=C1CC(c2nnc(Cc3ccccc3Cl)o2)CN1c1ccccc1 (configuration not stated) | 1.09 | 0.85

Next entries:
SMILES | CDC25B-CDK2 inh | TAR Tat displ
CCC(C)Sc1nc2ccccc2n1CC(=O)O (configuration not stated) | -0.97 | -0.41
Cc1ccccc1OCCSc1nnc(-c2ccc3c(c2)OCCCO3)n1C | . | 1.41
CN1C(C(=O)N2CCN(c3ccccc3)CC2)=CC(c2ccco2)=NS1(=O)=O | -2.14 | 1.99
COc1ccc(S(=O)(=O)NCCSc2nnnn2-c2ccccc2)cc1 | -0.46 | -0.3
CCCCSc1ncn[nH]1 | 6.84 | .
CC1CCCCN1CCCNc1ncnc2onc(-c3ccc(F)cc3)c12 (configuration not stated) | . | 1.03
CCc1cc2c(cc(C(=O)OC)n2Cc2nc(-c3cccs3)oc2C)s1 | -0.95 | 1.58
Cc1cc(NC(=O)COC(Cc2ccccc2)C(F)(F)F)no1 (configuration not stated) | -0.4 | .
CCCNC(=O)C(C)n1nc(C)n2c(cc3sccc32)c1=O (configuration not stated) | -0.76 | -0.24
Nc1c(-c2nc(-c3ccc(Cl)cc3)no2)nnn1-c1ccccc1Cl | . | 0.24
CCCC1CCC(C(=O)n2nc(N)c3cc4ccc(OC)cc4nc32)CC1 (configuration not stated) | -0.13 | 1
Cc1[nH]c(=O)[nH]c(=O)c1S(=O)(=O)Nc1ccc(F)c(Cl)c1 | . | 1.63
O=C1c2oc3ccccc3c(=O)c2C(c2cccc(O)c2)N1Cc1ccc2c(c1)OCO2 (configuration not stated) | -0.29 | 0.2
Cc1cc(OCc2nc(-c3ccc(-n4cccc4)cc3)no2)cc(C)c1Cl | -1.6 | 1.01
O=C(c1nn2c(c1Cl)NC(c1ccccc1)CC2C(F)(F)F)N1CCCCC1 (configuration not stated) | -1.37 | -0.25
CCOc1ccc(-c2cc(-c3nc(-c4ccccn4)no3)[nH]n2)cc1 | . | 0.27
CC(=O)c1ccc(C(=O)Nc2nc3c(s2)CCCC3)cc1 | -0.72 | .
Cc1ccc2c(c1)C1C=CCC1C(c1ccccc1Cl)N2 (configuration not stated) | -1.17 | -5.34
Cn1c(=O)c2c(SCC(=O)N3CCN(c4ccccc4)CC3)nc(CC(C)(C)C)nc2n(C)c1=O | . | -0.3
CCOC(=O)c1cn(CC(=O)Nc2cc(C)[nH]n2)c2nc(C)ccc2c1=O | -1.6 | 0.35
CN(CC(=O)Nc1nccs1)S(=O)(=O)c1ccc2c(c1)NC(=O)CCS2 | . | 0.51
CCCCNC(=O)CCCN1C(=O)CCn2nc(C)cc21 | . | -1.36
COC(=O)C1=C(C)Nc2nc(SCc3ccccc3)[nH]c(=O)c2C1c1ccc(F)cc1 (configuration not stated) | 0.01 | .
O=C(CS(=O)(=O)c1ccc2c(c1)S(=O)(=O)N=CN2)Nc1ccc(F)c(F)c1 | . | 0.79
O=C(Nc1ccc(Cl)cc1)Nc1nnc(-c2cccc(Br)c2)s1 | -4.08 | .
C=NC(C(=O)NC1C(=O)N2C1SC(C)(C)C2C(=O)O)c1ccccc1 (configuration not stated) | . | 1.82
COc1ccc(C(CC(=O)O)Sc2ncn[nH]2)cc1 (configuration not stated) | . | 1.18
COc1ccc(-c2cnc3c(-c4ccc(Cl)cc4)c(C)nn3c2N)cc1OC | -1.39 | 1.15
CCN(Cc1ccccc1)C(=O)CSc1nncn2c1cc1sccc12 | . | 0.93
CCOC(=O)c1c(/N=C/c2c(C)[nH]n(-c3ccc(Cl)cc3)c2=O)sc2c1CCCC2 | -1.87 | .
O=C1NC(c2ccc(Br)cc2)C(C(=O)c2ccc(Cl)cc2)C(O)(C(F)(F)F)N1 (configuration not stated) | -2.22 | .
COC(=O)Oc1ccc2c(=O)c(Oc3cccc(C)c3)c(C(F)(F)F)oc2c1 | -0.01 | 0.12
O=C(O)c1cc2c(ccc3ccccc32)[nH]1 | . | 1.71
Nc1nc(-c2ccccc2)cc(=O)[nH]1 | -0.37 | 1.39
COCCCNc1ncnc2onc(-c3ccc(Cl)cc3)c12 | 0.71 | 0.58
NNc1ccc2c(Cl)cc(Cl)c(O)c2n1 | -2.1 | .
Cc1cccc(NC(=O)Cc2noc3ccccc23)n1 | -2.07 | 1.49
O=C(NCCCN1CCCC1)c1cc2c(s1)-c1ccccc1OC2 | -1.37 | .
CCOc1ccc(S(=O)(=O)[C@H]2CS(=O)(=O)C[C@@H]2N2CCN(c3ccccc3F)CC2)cc1 | -1.44 | 0.38
O=C(NCc1cccs1)c1cc2n(n1)C(C(F)(F)F)CC(c1ccc(Cl)cc1)N2 (configuration not stated) | -1.24 | 1.89
COC(=O)Cn1c(CN(C)Cc2ccccc2)nc2c1c(=O)n(C)c(=O)n2C | -1.31 | -0.49
CCCOc1ccc(Br)cc1C1C(C(=O)OC(C)C)=C(C)Nc2nnnn21 (configuration not stated) | -0.79 | -0.91
COc1ccccc1OCCn1c(CO)nc2ccccc21 | -1.47 | -1.16
CCc1ccc(/C=C2/SC(=S)NC2=O)cc1 | 0.28 | .
Cn1c(=O)c2c(nc(SCC(=O)O)n2Cc2ccccc2Cl)n(C)c1=O | -1.12 | .
CC1=CC(=O)CC(C)(C)C1(O)/C=C/C(C)=C\C(=O)O (configuration not stated) | . | 1.96
COc1ccc2c(=O)c(-c3ccc4c(c3)OCCO4)coc2c1 | 0.26 | .
Cc1ccc(CN2C(=O)C(O)(CC(=O)c3ccc(C)o3)c3cc(Cl)ccc32)cc1 (configuration not stated) | 0.71 | 1.71
Fc1cccc(-c2nnc(Cc3cccc(Cl)c3)o2)c1 | -2.94 | 0.59
COCCCNC(=S)NNC(=S)Nc1ccccc1 | -2.68 | .
CCOC(=O)N1CCC(N2C(=O)c3ccccc3C2Nc2cc(OC)ccc2OC)CC1 (configuration not stated) | 0.14 | 0.41
O=C(NCC1CCCO1)c1cc2n(n1)C(C(F)(F)F)CC(c1ccc3c(c1)OCO3)N2 (configuration not stated) | -1.18 | 2.13

Of the compounds above, these contain an aryl thioether with sulfur outside any ring.
SMILES | CDC25B-CDK2 inh | TAR Tat displ
Nc1nnc(Sc2cc3c(cc2[N+](=O)[O-])C(=O)NC3=O)s1 | -0.83 | .
Cc1cccc(OCCCSc2nc(-c3cccs3)nc3cc(=O)[nH]n23)c1C | . | 0.29
CCN(CC)CCNc1nc(SC)nc2sc3c(c12)CC(C)(CC)OC3 (configuration not stated) | -0.75 | 0.07
O=C(CSc1nc(-c2ccco2)cc(C(F)(F)F)n1)NCc1ccco1 | 0.28 | -0.63
CCCCSc1nc2c(c(=O)[nH]1)C(c1sccc1C)C(C(=O)OCC)=C(C)N2 (configuration not stated) | -0.39 | -1.51
O=C(O)CCSc1nnc(Cc2ccccc2)o1 | 0.24 | 0.3
O=C(CSc1ncnc2c1oc1ccccc12)N1CCOCC1 | -1.45 | .
CCC(C)Sc1nc2ccccc2n1CC(=O)O (configuration not stated) | -0.97 | -0.41
Cc1ccccc1OCCSc1nnc(-c2ccc3c(c2)OCCCO3)n1C | . | 1.41
COc1ccc(S(=O)(=O)NCCSc2nnnn2-c2ccccc2)cc1 | -0.46 | -0.3
CCCCSc1ncn[nH]1 | 6.84 | .
Cn1c(=O)c2c(SCC(=O)N3CCN(c4ccccc4)CC3)nc(CC(C)(C)C)nc2n(C)c1=O | . | -0.3
COC(=O)C1=C(C)Nc2nc(SCc3ccccc3)[nH]c(=O)c2C1c1ccc(F)cc1 (configuration not stated) | 0.01 | .
COc1ccc(C(CC(=O)O)Sc2ncn[nH]2)cc1 (configuration not stated) | . | 1.18
CCN(Cc1ccccc1)C(=O)CSc1nncn2c1cc1sccc12 | . | 0.93
Cn1c(=O)c2c(nc(SCC(=O)O)n2Cc2ccccc2Cl)n(C)c1=O | -1.12 | .

Source: PubChem BioAssay
